# Bioassay records (PubChem)
# TRPML1 inh = inhibitors of human TRPML1 channel. Q9GZU1. TRPML1-inducible cells, Ca2+ dye fluorescence, FDSS; hits give low values; inhibition of EC80 agonist-evoked calcium signal. activity change, negative = inhibition, % (concentration not given with the values). hit rate 0.02% among 390,000; in the data active means activity change below about -50%; inconclusive means about -30% to -50%; inactive means above about -30%;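 further: stimulus is agonist 54-4 at its EC80 concentration; on the % scale 0 is the no-effect control and ±100 the full control effect; compound concentration not given in the record; the text of the record puts the active cut at -80%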
# Target sequence (Q9GZU1 whole entry, looked up): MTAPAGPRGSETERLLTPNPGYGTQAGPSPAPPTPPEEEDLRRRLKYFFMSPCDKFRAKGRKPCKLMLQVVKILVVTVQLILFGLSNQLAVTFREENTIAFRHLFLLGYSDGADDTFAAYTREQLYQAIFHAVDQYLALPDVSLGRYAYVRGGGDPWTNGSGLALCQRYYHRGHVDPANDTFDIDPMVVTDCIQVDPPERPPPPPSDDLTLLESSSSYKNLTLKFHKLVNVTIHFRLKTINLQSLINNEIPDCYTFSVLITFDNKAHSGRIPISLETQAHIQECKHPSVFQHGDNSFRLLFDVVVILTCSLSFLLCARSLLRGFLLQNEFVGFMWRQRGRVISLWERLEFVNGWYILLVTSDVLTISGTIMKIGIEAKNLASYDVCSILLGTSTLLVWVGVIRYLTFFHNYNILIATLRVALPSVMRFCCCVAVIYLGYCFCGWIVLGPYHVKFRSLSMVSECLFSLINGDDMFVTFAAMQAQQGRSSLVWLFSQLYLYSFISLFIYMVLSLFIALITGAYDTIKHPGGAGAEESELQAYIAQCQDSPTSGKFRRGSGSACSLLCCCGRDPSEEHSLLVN
#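 Tet-induced TRPML1-DL cells loaded with Ca8 no-wash calcium dye were read kinetically on FDSS. Compound addition was followed by EC80 agonist 54-4 (4 uM final); inhibition was read over 110 s.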
# ClpP mod = qHTS Assay for Activators of ClpP. hit rate 1.9% among 340,000. Potency, µM (top dose mostly 57.5 µM), inactives show at the highest dose activity change, negative = active. purified B. subtilis ClpP, FRET peptide cleavage, 20 min; active = well fitted falling curve with a large enough effect; inconclusive = small, poorly fitted or top-dose-only effect; inactive = no such curve, though single readings can be large or run the other way; further: potency means the concentration at half of the fitted maximal effect; the source files actives as falling curves though it sought activators and does not explain the sign; nearly all actives have a fitted effect of over 65% in size; many hits overshoot -100%
# Target sequence (P80244 whole entry, looked up): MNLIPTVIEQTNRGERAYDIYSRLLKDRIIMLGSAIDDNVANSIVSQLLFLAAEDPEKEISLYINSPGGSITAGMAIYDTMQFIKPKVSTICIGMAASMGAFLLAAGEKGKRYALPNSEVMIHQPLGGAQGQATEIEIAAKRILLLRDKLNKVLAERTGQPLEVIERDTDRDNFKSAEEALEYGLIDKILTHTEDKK
#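 Purified B. subtilis ClpP, 10 microg/mL final in Tris/HCl pH8 with KCl, BSA, glycerol and Tween-20, cleaved an Abz/nitrotyrosine-quenched decapeptide. Fluorescence (ex 320, em 430) was read at 0 and 20 min at room temperature. Delta was normalized to 5.8 microM ADEP and DMSO/no-enzyme controls.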
# gsp ag = agonists of gsp mutant (McCune-Albright syndrome) | gsp mutant cells, cAMP HTRF, 30 min; control for the full effect not named in the record | Potency, µM (highest dose often 76.9 µM), for the others: at the highest dose activation (cAMP increase), actives largely listed as activators | hit rate 0.13% among 340,000 | AID 624287; active = well fitted activation curve with a large enough effect; inconclusive = small, poorly fitted or top-dose-only effect, or another doubt; inactive = no such curve, though single readings can be large or run the other way; cell line not stated here;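 further: phosphodiesterase inhibitor Ro 20-1724 added with compounds to block cAMP breakdown; potency means the concentration at half of the fitted maximal effect; nearly all actives have a fitted effect of over 60% in size; about a fifth of the inactives were tested at one dose only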
#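 Cells stably selected in G418 were plated at 2000/well, grown 16-24 hr, then given compounds in DMSO with the PDE inhibitor […] (300 uM solution added) for 30 min at 37C; cAMP was read by HTRF.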
# gsp antag = gsp mutant antagonism; gsp-mutant cells, cAMP HTRF, 30 min; control for the full effect not named in the record; Potency, µM (series often up to 76.9 µM), without a hit: at the highest dose activity change, negative = inhibition, actives largely listed as inhibitors; hit rate 0.4% among 340,000; AID 624288; active = falling curve of any shape with a large fitted effect; inconclusive = falling curve, mostly with a smaller effect; inactive = flat or rising curve; cell line not stated here;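 further: intracellular cAMP measured with PDE inhibitor Ro 20-1724 present during compound exposure; potency means the concentration at half of the fitted maximal effect; on the % scale 0 is the no-effect control and ±100 the full control effect; nearly all actives have a fitted effect of over 65% in size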
#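 Cells in G418 medium, seeded 16-24 h, 37C; buffer exchange to DPBS + 1 mM CaCl2, 0.5 mM MgCl2, 0.05% BSA; cpds in DMSO + […] (300 uM stock), 30 min 37C; HTRF cAMP detection.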
# Menin MLL FP FL = displaces fluorescein MLL peptide from human menin. Fluorescence polarization, fluorescein-MLL peptide displacement from menin. FP activity change, % at 61.4 µM. 290,000 tested, under 10 active. AID 1766; inconclusive = falling polarisation curve, or a change in total fluorescence; inactive = total fluorescence flat and polarisation flat or rising; no compound was filed as active; the % refers to the polarisation; negative = inhibition;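 further: % of control where 0% means no effect; inhibitors lower the polarisation; unlabelled MLL peptide was the positive control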
# TRPML1 agonist = human mucolipin-1 channel agonism | Q9GZU1 | TRPML1-expressing cells, Ca2+ dye fluorescence, FDSS; host cell line not named in the record; reference of the full effect not given here | activation, % (test concentration not listed) | hit rate 0.12% among 410,000 | AID 624414; in the data active = activation above about 50%; inconclusive = about 30% to 50%; inactive = below about 30%; further: 0% is about no effect; the text of the record puts the active cut at 80%
#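 Cells: TRPML1-DL, 1X Tet inducer, ~16 h at 37 degrees C/5% CO2. Dye: ABD Ca8 no-wash + quencher, 45-90 min RT. Read: 10 s baseline, compound add, 110 s agonist phase; 54-4 EC80 (4uM final), 110 s antagonist phase.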
# * marks the source's active call; other numbers are inactive results; ? = inconclusive; / = not tested or not shown; [ ] = another dose, or the depositor's remark.
SMILES,TRPML1 inh,ClpP mod,gsp ag,gsp antag,Menin MLL FP FL,TRPML1 agonist
CCOC(=O)C1(C)CCCN(C(=O)c2ccc(OC)cc2OC)C1 (stereo not drawn),-7,1.1%,/,/,/,-0.3
CCc1cccc2c(C(=O)CN3C(=O)NC4(CCCCC4)C3=O)c[nH]c12,-20,-1.8%,6%[15.4 µM],-1%,/,1.4
C=CCNC(=O)/C=C/c1c(F)cccc1Cl,20,-7.9%,-2%,6%,2.2,-0.2
Cc1cc(N2CCOCC2)n2nc(C)c(-c3ccccc3)c2n1,7,-5.0%,5%,-12%,-2.2,1.7
COC(=O)CN(c1ccccc1)S(=O)(=O)c1cc(Br)ccc1OC,2,0.2%,2%,-7%,2.8,0.3
COc1ccc(N(CC(=O)NC2CCCCC2)C(=O)CCC(=O)Nc2nc(C)cs2)cc1,-10,/,29%,-1%,-0.2,2.4
Cc1ccccc1OCCn1c(CCNC(=O)C(C)(C)C)nc2ccccc21,-5,2.6%,/,/,/,1.6
O=C(Cn1nc(-c2ccccc2Cl)ccc1=O)Nc1ccccc1-c1ccccc1,18,14µM*,-7%[15.4 µM],?,0.2,2.2
COc1ccc(C(=O)C2CCCN(S(=O)(=O)c3ccc(C(C)=O)cc3)C2)c(C)c1 (stereo not drawn),-7,1.3%,26%,?,2.7,0.2
CCOCCn1c(N2CCCC2)nc2c1c(=O)n(C)c(=O)n2C,17,/,20%,-14%,2.3,0.1
CCCN1CCC(Oc2cccc(C(=O)NCCc3ccccc3)c2)CC1,1,-16%,-16%[15.4 µM],-17%,/,0.2
CCCCCN(C(=O)CCC(=O)OCC(=O)N(CC)c1ccccc1)c1c(N)n(CCCC)c(=O)[nH]c1=O,0,/,-7%[15.4 µM],13%,/,-0.2
O=C(N/N=C/c1cccnc1)c1[nH]ncc1Br,-8,/,-5%[15.4 µM],1%,3.3,-0.2
CC(C)=C(NC(=O)c1ccccc1)C(=O)N1CCOCC1,13,-1.4%,12%,4%,1.8,0.5
O=C(COC(=O)c1ccccc1Sc1ccc(C(F)(F)F)cc1[N+](=O)[O-])NC(=O)NC1CCCC1,-7,-0.2%,-57%[inhibitor],-11%,-0.1,0.0
CCOC(=O)CN1CCc2c(C)nc3c(-c4ccc(OC)c(OC)c4)cnn3c21,20,50%,-50%,-4%,0.4,-0.2
CCCN1CCN(C(=O)c2ccc3nc(CC)c(CC)nc3c2)CC1,-8,-1.6%,13%[15.4 µM],8%,-1.7,-0.9
COc1ccccc1N=CC=C1OC(C)(C)C(C)(C)O1,70,/,?,-16%,-7.4,0.7
O=C(Nc1nnc(C2CC2)s1)C1CC(=O)N(c2ccc3c(c2)OCCO3)C1 (stereo not drawn),-5,1.6%,3%,9%,5.3,-0.2
Cc1ccc(C)c(N(C)C(=O)COc2cc(=O)n(C)c3ccccc23)c1,13,-2.5%,1%,-3%,-1.5,1.1

# 2 entries picked at random from the list so far, as already listed:
SMILES,TRPML1 inh,ClpP mod,gsp ag,gsp antag,Menin MLL FP FL,TRPML1 agonist
CCOC(=O)C1(C)CCCN(C(=O)c2ccc(OC)cc2OC)C1 (stereo not drawn),-7,1.1%,/,/,/,-0.3
O=C(N/N=C/c1cccnc1)c1[nH]ncc1Br,-8,/,-5%[15.4 µM],1%,3.3,-0.2

# (list continues)
SMILES,TRPML1 inh,ClpP mod,gsp ag,gsp antag,Menin MLL FP FL,TRPML1 agonist
O=c1c2ccccc2[nH]c(=S)n1CCCN1CCC(Cc2ccccc2)CC1,25,1.9%,6%,7%,7.8,2.1
COc1ccc2[nH]c(=O)c(C3c4cc(OC)c(OC)cc4CCN3C(=O)c3ccco3)cc2c1 (stereo not drawn),-9,/,27%,17%,/,-0.4
CC(C)CNc1nnnc2c1sc1nc(N3CCOCC3)c3c(c12)CC(C)(C)SC3,-8,-1.1%,0%,9%,2.8,0.7
CC(=O)Nc1sc2c(c1-c1nc3ccccc3s1)CCN(C(C)C)C2,19,-3.7%,12%,-5%,?,10
CCCSc1nc(C)c2cc(C)cc(C)c2n1,-19,-16%,-19%,-30%,2.4,0.4
OCC#CCSc1nnc(-c2ccc(Br)cc2)o1,-4,-1.2%,-5%,-2%,-1.6,-1.0
COc1ccc(CC(=O)Nc2cccc(/C(C)=N/NC(=O)c3cccc([N+](=O)[O-])c3)c2)cc1,6,0.7%,-1%,-19%,2.7,2.8
CCN(c1cccc(C(F)(F)F)c1)S(=O)(=O)c1ccc2c(c1)CCN2C(=O)C1CC1,84,-1.1%,-7%,?,2.7,2.2
CC(=O)c1cccc(NC(=O)CSc2nnc(C(C)N(C)C)n2Cc2ccccc2)c1 (stereo not drawn),-4,/,9%,-6%,-2.8,2.6
O=C(N/N=C/c1ccc(OC(=O)c2cccc(F)c2)cc1)c1cccnc1,4,0.5%,2%[15.4 µM],2%,1.7,0.2
CC(=O)C1=C(c2ccccc2)NC(=O)NC1c1ccccc1OCC(=O)Nc1ccccc1 (stereo not drawn),-2,-0.9%,-1%,-12%,0.7,13
O=C(CC(c1ccccc1)c1cc(Br)ccc1O)N1CCCC1 (stereo not drawn),-3,-0.1%,-35%[inhibitor],-4%,-1.2,-0.1
C=CCn1c(=O)c(C(=O)Nc2cccnc2)c(O)c2ccccc21,-6,-5.8%,-9%,1%,2.0,-0.6
COc1ccc(C(=S)NC2CCCCC2)cc1,-7,-7.0%,-25%,-7%,1.6,-0.5
CCCCNC(=O)c1ccc2c(c1)N=C(CC)c1ccccc1S2,10,-1.8%,/,/,/,0.3
CC(=O)c1ccc(OC(=O)C2CSC3(C)CCC(=O)N23)cc1 (stereo not drawn),-13,1.2%,20%,11%,/,0.8
COc1ccc(CCN2C(=NC(=O)CC(C)C)SC3CS(=O)(=O)CC32)cc1OC (stereo not drawn),-11,1.1%,-22%,-1%,3.5,3.2
CC1CC(C)CN(CCCNC(=O)Cn2ncc3c([nH]c4ccccc43)c2=O)C1 (stereo not drawn),56,-1.7%,?,-7%,/,2.2
Cc1ccc(-n2cnc(=O)c3cccnc32)cc1,15,-0.3%,6%,1%,3.3,1.7
COc1ccc(C(=O)/C=C/Sc2nc3ccccc3o2)cc1,7,/,?,-9%,1.0,1.1
CC(C)n1c(N2CCN(CC(=O)NCc3cccs3)CC2)nc2ccccc21,-5,-0.6%,-2%,-15%,1.7,-1.2
O=C(CSc1c2c(nc3ccc(Cl)cc13)CCCC2)N1CCCCC1,-5,0.5%,/,/,/,2.4
CC(C)OC(=O)n1c(=S)oc2ccccc21,3,-3.0%,5%,6%,-1.2,0.5
NCCc1nnc(SCc2ccccc2Cl)o1,-13,/,-8%[15.4 µM],18%,-1.0,0.4
CC(C)N(C(=O)CSc1nc(Cc2ccccc2)nc2ccccc12)C(C)C,75,-0.6%,0%,-14%,1.8,3.9
O=C(CSc1c(Cl)cccc1Cl)NC1CCCc2ccccc21 (stereo not drawn),18,1.2%,0%,9%,-0.5,1.5
CCN(CC)S(=O)(=O)c1cccc(C(=O)OCC(=O)C23CC4CC(CC(C4)C2)C3)c1,88,-4.1%,-33%[inhibitor],-16%,1.5,1.0
CC1CC(C)CN(C(=O)C(NS(=O)(=O)c2ccc(Br)s2)c2ccccc2)C1 (stereo not drawn),56,-0.3%,?,-15%,5.1,3.2
CN(C)c1ccc(CNC(=O)CN2C(=O)C3CCCCN3c3ccc(C(=O)N4CCCC4)cc32)cc1 (stereo not drawn),4,-4.8%,/,/,/,0.0
O=C(NCc1ccccc1)c1ccc(NC(=O)C2CCCC2)cc1,7,2.1%,/,3%,/,-0.6
COc1cc2[nH]c(C(=O)N3CCc4ccccc4C3)cc2c(OC)c1OC,-7,/,4%,3%,/,1.7
N#Cc1cccnc1Oc1ccccc1,50,/,12%,7%,-1.7,0.8
COc1ccc(C(=O)N2CCN(c3ccc(C)cc3)CC2)cc1OC,32,0.4%,-56%[inhibitor],4%,0.0,0.3
Cc1ccc(C(C(=O)NC2CCCC2)N(Cc2ccc(F)cc2)C(=O)c2csnn2)o1 (stereo not drawn),-6,39%,-21%,-14%,5.0,6.3
COc1ccc(/C=C2\SC(=S)N(CC(=O)N3CCN(C)CC3)C2=O)cc1,47,0.9%,-3%[15.4 µM],0%,2.8,0.1
C/C(=N\NC(=O)c1ccc(NS(=O)(=O)c2cccs2)cc1)c1ccccn1,-7,/,-30%[15.4 µM],-8%,0.7,0.3
CSc1ccc(CCNC(=O)NCc2noc3ccccc23)cc1,-17,-0.9%,/,/,/,3.1
Cc1ccc(C(=O)NC2CCC(C)CC2)s1 (stereo not drawn),11,-0.9%,-1%[15.4 µM],4%,/,0.3
O=[N+]([O-])c1ccc(/C=N/Nc2ncccc2[N+](=O)[O-])s1,-6,/,39%[15.4 µM],-5%,/,-0.3
Cc1cc(NS(=O)(=O)c2ccc(NC(=O)c3oc4ccccc4c3C)cc2)no1,-4,-0.1%,5%,-14%,0.1,-0.5

# Copied from the list.
# gsp antag with `CC(C)N(C(=O)CSc1nc(Cc2ccccc2)nc2ccccc12)C(C)C` → -14%
# TRPML1 inh with `COc1ccc(C(=O)N2CCN(c3ccc(C)cc3)CC2)cc1OC` → 32
# gsp ag with `COc1cc2[nH]c(C(=O)N3CCc4ccccc4C3)cc2c(OC)c1OC` → 4%
# ClpP mod with `O=C(NCc1ccccc1)c1ccc(NC(=O)C2CCCC2)cc1` → 2.1%

# Continuation.
SMILES,TRPML1 inh,ClpP mod,gsp ag,gsp antag,Menin MLL FP FL,TRPML1 agonist
CN1CCN(C(=O)Nc2ccc([N+](=O)[O-])cc2)CC1,/,-2.6%,17%,2%,0.9,/
N=c1ccn2c(n1)O[C@H]1[C@@H](CO)[C@H](O)O[C@H]12,-2,-1.3%,/,-5%,/,0.0
Cc1cc(C)n(-c2ccc(NC(=O)C3CCN(Cc4ccccn4)CC3)cc2)n1,-3,-2.5%,0%,0%,2.8,0.6
COc1cccc(C(=O)NN2c3ccccc3CCc3ccccc32)c1,-5,-3.1%,4%,-8%,?,1.1
Cc1cc(C)cc(OCc2nnc(SCC(=O)OC(C)C)o2)c1,-13,2.3%,13%,-8%,-1.8,1.2
C[C@@H]1CN([C@@H](C)CO)C(=O)CCCn2nncc2CO[C@@H]1CN(C)C(=O)Nc1ccccc1,0,2.4%,-42%,/,/,-0.1
CCCc1cc(=O)[nH]c(Nc2cc(OC)ccc2OC)n1,23,?,6%,-1%,-2.1,0.1
CCN(CC)S(=O)(=O)c1cc(NC(=O)CSc2nccn2C)ccc1C,-8,/,-14%[15.4 µM],/,-6.6,0.1
COc1ccc(C(=O)c2oc3ccccc3c2NC(=O)c2nc(SC)ncc2Cl)cc1Cl,27,-1.5%,/,/,/,-0.8
CCCn1c(N)c(C(=O)CSc2nc3ccccc3s2)c(=O)[nH]c1=O,-8,0.0%,-1%[15.4 µM],-15%,-0.4,-0.1
Cc1ccc(CNC(=O)CSc2nnc3c(n2)[nH]c2ccccc23)cc1,2,/,5%,0%,12,-0.1
